Ecoli rRNA inh: selective bacterial rRNA inhibition in E. coli | E. coli WT GFP vs humanized-ribosome RFP mutants, fluorescence, 24 h; active compounds read low; DMSO median 0, no signal -100 | GFP signal change (wild-type ribosome), % (test concentration not listed) | 350,000 compounds, 1.6% hits;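 active means significant combined selectivity score with lowered wild-type GFP, culture density cut under 30%, mutant RFP and density less affected; inactive means any of these conditions unmet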; further: one replicate is shown; some compounds called inactive have numbers as strong as hits
Ecoli rRNA inh OD600: further read-out of Ecoli rRNA inh, marked with its call; OD600 change, %; measured here: OD600 growth;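 optical density of the mix in the first replicate; 0 = DMSO median and -100 = no signal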
Ecoli rRNA inh RFP: recorded beside Ecoli rRNA inh, whose call it bears; RFP signal change, %; measured here: RFP humanized mutant strains;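 first replicate; 0 = DMSO median and -100 = no signal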
An asterisk follows results filed as active; & = joins results of further samples. This is a subset; the hit share may differ from the screen's.

SMILES | Ecoli rRNA inh | Ecoli rRNA inh OD600 | Ecoli rRNA inh RFP
CO[C@H]1CN(C)C(=O)c2cc(NC(=O)NC(C)C)ccc2OC[C@@H](C)N(Cc2ccccc2)C[C@@H]1C | -6 | -20 | -2.1
O=C(C[C@@H]1C[C@H]2c3cc(NC(=O)CC4CC4)ccc3O[C@H]2[C@@H](CO)O1)NCc1ccncc1 | 1 | 2 | -1.0
COc1ccc(S(=O)(=O)Nc2ccc3c(c2)C(=O)N([C@@H](C)CO)C[C@H](C)[C@@H](CN(C)C(=O)c2ccccc2)OCCCC[C@@H](C)O3)cc1 | 1 | -11 | 5.5
O=S(=O)(Cc1ccccc1)N1CCCCN2[C@H](CO)[C@H](c3ccc(-c4cncnc4)cc3)[C@H]2C1 | -2 | 5 | -0.6
COc1ccccc1-c1ccc([C@H]2[C@H](CO)N[C@@H]2C#N)cc1 | 1 | 2 | -3.7
CCCC(=O)Nc1ccc2c(c1)OC[C@H](C)N(Cc1ccc(F)cc1)C[C@@H](C)[C@H](OC)CN(C)C2=O | -5 | -17 | 1.7
C[C@H](CO)N1C[C@H](C)[C@@H](CN(C)C(=O)c2ccccc2)OCCCC[C@H](C)Oc2ccc(NC(=O)CCCN(C)C)cc2C1=O | 3 | 4 | -0.5
CC1C(=O)N(Cc2cn(CCC3OCCCO3)nn2)CCS(=O)(=O)N1Cc1ccc(-c2ccncc2)cc1 (stereo unspecified) | 1 | 3 | -0.3
CC(C)CC#Cc1cnc2c(c1)C(=O)N([C@@H](C)CO)C[C@H](C)[C@@H](CN(C)Cc1ccc(C(=O)O)cc1)O2 | -1 | 6 | 0.3
N#C[C@@H]1[C@H](c2ccccc2C2=CCCC2)[C@H](CO)N1C(=O)C1CCOCC1 | 4 | 10 | -0.1
C[C@H](CO)N1C[C@H](C)[C@H](CN(C)CC2CCOCC2)Oc2ncc(C#Cc3ccc(F)cc3)cc2C1=O | 2 | 0 | 12
CC=Cc1ccc2n(c1=O)C[C@H]1[C@H](CO)[C@@H](C(=O)NCC)N(Cc3cccc(F)c3)[C@@H]21 (mixture of isomers) | 0 | 17 | 0.3
O=C(C1CCCC1)N1CC[C@H]2[C@H](CO)Nc3ccc(-c4cccc(F)c4)cc3[C@H]21 | -57 | -76 | -11
Cc1noc(C)c1NC(=O)N(C)C[C@@H]1Oc2ccc(NC(=O)Nc3cccc4ccccc34)cc2C(=O)N([C@@H](C)CO)C[C@@H]1C | 1 | 5 | -1.2
C[C@@H]1CCCCO[C@@H](CN(C)S(=O)(=O)c2ccccc2)[C@H](C)CN([C@@H](C)CO)C(=O)c2cc(NC(=O)Nc3ccccc3)ccc2O1 | -3 | 5 | -1.8
CC(C)NC(=O)N(C)C[C@H]1OCCCC[C@H](C)Oc2ccc(NS(=O)(=O)c3ccccc3)cc2C(=O)N([C@H](C)CO)C[C@H]1C | 0&0 | 6&12 | -2.7&-1.4
C[C@H]1CN([C@@H](C)CO)C(=O)c2cc(NC(=O)Nc3cccc4ccccc34)ccc2O[C@@H]1CN(C)CC1CCCCC1 | 2 | 7 | 0.3
CC(C)NC(=O)N(C)C[C@H]1OCc2cn(nn2)CCCC(=O)N([C@@H](C)CO)C[C@H]1C | 6 | 9 | 0.2
C[C@@H]1O[C@H](CCc2cccc(Cl)c2)CC2=C1C(=O)OC(C)(C)O2 | -31 | -66 | -2.8
NC(=O)c1nnn(Cc2cc(Cl)c(C(=O)c3ccc(Cl)cc3)c(Cl)c2)c1N | -43 | -69 | -6.3
CCc1c(-c2ccccc2)ncn1CCc1ccccc1OC | -58 | -80 | -20
O=C(NCCc1ccccc1F)c1cc(COc2ccc(F)cc2F)on1 | 7 | 6 | 3.0
CN1C(=O)c2cc(NC(=O)C3CCCC3)ccc2OC[C@H]2O[C@H](CC(=O)NCC(F)(F)F)CC[C@H]21 | 1 | 6 | -2.1
Cc1noc(C)c1S(=O)(=O)Nc1ccc2c(c1)C(=O)N([C@@H](C)CO)C[C@H](C)[C@H](CN(C)C)O2 | 3 | 0 | 2.3
CCC(=O)N(C)C[C@@H]1Oc2cc(C#CCOC)ccc2S(=O)(=O)N([C@@H](C)CO)C[C@H]1C | 2 | -7 | -0.4
Next section:
SMILES | Ecoli rRNA inh | Ecoli rRNA inh OD600 | Ecoli rRNA inh RFP
COc1ccc(S(=O)(=O)N(C)C[C@H]2OCCCC[C@H](C)Oc3ccc(NC(=O)Cc4ccccc4)cc3C(=O)N([C@@H](C)CO)C[C@@H]2C)cc1 | 0 | 0 | 3.6
CCC(=O)N1CC2(C1)[C@@H](c1ccc(C3=CCCC3)cc1)[C@@H](CO)N2C(=O)COC | 0 | 6 | -1.2
CCCNC(=O)N1CC2(CCN(C(=O)c3ccncc3)CC2)c2c([nH]c3cc(OC)ccc23)[C@H]1CO | -1 | 4 | -2.2
COCC(=O)Nc1ccc2c(c1)C(=O)N(C)C[C@@H](OC)[C@@H](C)CN(C(=O)c1ccccc1F)[C@@H](C)CO2 | 2 | -3 | -2.5
O=C(Nc1ccccc1F)N[C@@H]1C=C[C@@H](CC(=O)N2CCCCC2)O[C@@H]1CO | 2 | -4 | -0.5
C[C@H]1CN([C@@H](C)CO)C(=O)Cc2cc(NC(=O)Cc3cn(C)c4ccccc34)ccc2O[C@H]1CN(C)S(=O)(=O)c1cn(C)cn1 | 2 | 6 | -1.8
CO[C@H]1CN(C)C(=O)c2ccc(NC(=O)Nc3ccccc3F)cc2OC[C@H](C)N(C(C)=O)C[C@H]1C | -1 | 0 | -1.1
O=C(Cc1ccncc1)N1CC(=O)N2[C@H](C1)[C@@H](c1ccc(Br)cc1)[C@@H]2CO | 6 | 7 | -0.8
C[C@H]1CN([C@@H](C)CO)C(=O)c2cc(NS(=O)(=O)c3cn(C)cn3)ccc2O[C@H]1CN(C)S(C)(=O)=O | -1 | 7 | -1.1
C[C@@H]1CN([C@H](C)CO)C(=O)c2cc(NC(=O)Cc3cn(C)c4ccccc34)ccc2O[C@@H]1CN(C)C(=O)Nc1ccc(C(F)(F)F)cc1 | -2 | 3 | 0.5
CC(C)NC(=O)Nc1ccc2c(c1)C(=O)N([C@H](C)CO)C[C@@H](C)[C@@H](CN(C)C(=O)Nc1ccc3c(c1)OCO3)O2 | 2 | 10 | -2.7
C[C@H]1CN([C@@H](C)CO)C(=O)Cc2cc(NC(=O)Nc3cccc4ccccc34)ccc2O[C@H]1CN(C)C(=O)NC1CCCCC1 | -5 | -5 | 3.3
C/C=C/c1ccc2c(c1)O[C@H](CN(C)Cc1ccccn1)[C@H](C)CN([C@H](C)CO)S2(=O)=O | 1 | -4 | 0.9
CCS(=O)(=O)NCC[C@H]1CC[C@H](NC(=O)Nc2cc(Cl)cc(Cl)c2)[C@H](CO)O1 | -5 | -10 | 1.4
O=C(C[C@@H]1C=C[C@@H](NC(=O)C2CC2)[C@@H](CO)O1)NCc1ccccc1Cl | 2&17 | -2&12 | -1.8&-0.1
C/C=C/c1ccc2c(c1)O[C@@H](CN(C)C)[C@H](C)CN([C@H](C)CO)S2(=O)=O | -1 | -1 | 1.3
CC1(C(=O)Nc2ccc(Cl)c(Cl)c2)CCN1CCc1ccccc1 (stereo unspecified) | -16 | -23 | -2.0
COc1ccc2c3c([nH]c2c1)[C@H](CO)N(C(=O)c1ccncc1)CC31CN(C(=O)Nc2cccc(F)c2)C1 | -2 | -6 | -2.7
COc1ccc(NC(=O)N(C)C[C@H]2OCCCC[C@@H](C)Oc3ccc(NS(=O)(=O)c4ccc(Cl)cc4)cc3C(=O)N([C@@H](C)CO)C[C@H]2C)cc1 | 1 | 0 | -0.8
C[C@H](CO)N1C[C@H](C)[C@@H](CN(C)Cc2ccccc2C(=O)O)Oc2cc(-c3ccc(F)cc3)ccc2S1(=O)=O | 1 | 9 | 1.1
O=C(Nc1cc(F)ccc1F)N[C@H]1CC[C@H](CCNC(=O)c2cnccn2)O[C@H]1CO | 4 | 2 | -2.0
CCC(=O)N[C@H]1CC[C@@H](CCNC(=O)Nc2ccc(F)cc2)O[C@H]1CO | 2 | 1 | 0.4
COc1cccc(C#Cc2ccc([C@@H]3[C@@H](CO)N(C(=O)C4CCCC4)[C@H]3C#N)cc2)c1 | 1 | -11 | 6.3
Cc1noc(C)c1NC(=O)Nc1ccc2c(c1)CC(=O)N([C@H](C)CO)C[C@@H](C)[C@H](CN(C)Cc1ccccc1)O2 | -1 | 1 | 0.2
C[C@@H]1CN([C@H](C)CO)S(=O)(=O)c2ccc(/C=C/c3ccccc3)cc2O[C@@H]1CN(C)C(=O)Nc1ccc(F)cc1 | 0 | 4 | -8.1
Going on with the list.
SMILES | Ecoli rRNA inh | Ecoli rRNA inh OD600 | Ecoli rRNA inh RFP
N#C[C@H]1[C@H](c2ccccc2-c2ccccc2)[C@@H](CO)N1C(=O)NC1CCCC1 | 15 | -47 | 16
Cc1noc(C)c1NC(=O)N(C)C[C@H]1Oc2ccc(NC(=O)C3CC3)cc2C(=O)N([C@@H](C)CO)C[C@@H]1C | 3 | -6 | 1.1
CC(C)NC(=O)N(C)C[C@H]1Oc2ncc(C#CC3CC3)cc2C(=O)N([C@@H](C)CO)C[C@@H]1C | 0 | 10 | -2.0
O=C(NNC(=O)C(c1ccccc1)c1ccccc1)c1ccccc1O | -29 | -34 | 0.0
CC(C)(C)[S@@](=O)N1Cc2cc(C(=O)N3CCc4ccccc4C3)nc(-c3cccc(-c4cccnc4)c3)c2[C@H]1CCO | -3 | 5 | 13
O=C(Nc1ccc(F)cc1)N1CC(=O)N2[C@H](C1)[C@@H](c1ccc(C#Cc3cccnc3)cc1)[C@@H]2CO | -10 | -11 | 1.2
CCCCNC(=O)c1nc(-c2cccc(C(F)(F)F)c2)oc1-c1ccc(OC(F)(F)F)cc1 | -6 | 3 | -5.8
C[C@@H]1CCCCO[C@H](CN(C)C(=O)C2CCCCC2)[C@@H](C)CN([C@H](C)CO)C(=O)c2cc(NC(=O)Cc3ccccc3)ccc2O1 | 4 | 0 | -1.2
CO[C@@H]1CN(C)C(=O)c2cc(NC(=O)c3cnccn3)ccc2OC[C@@H](C)N(C(C)=O)C[C@@H]1C | 1 | -5 | 0.7
CC(=O)Nc1ccc(-c2ccnc3c2CC(C)(C(=O)Nc2ccc(Cl)c(C(F)(F)F)c2)O3)cc1 (stereo unspecified) | 4 | -35 | -3.9
COc1ccc(S(=O)(=O)N(C)C[C@@H]2Oc3ccc(N(C)C)cc3CC(=O)N([C@H](C)CO)C[C@H]2C)cc1 | -2 | -4 | -2.4
CCOC(=O)C1=C(COC(=O)CNS(=O)(=O)c2ccc(C)c(C)c2)NC(=O)NC1C (stereo unspecified) | 4 | 1 | 37
CCC(=O)N1CCC2(CC1)CN(CC1CCCCC1)[C@@H](CO)c1c2c2ccc(OC)cc2n1C | 2 | 7 | 0.0
CCOC(=O)C1CCCN(C(=O)c2cccc(S(=O)(=O)NCc3ccccc3)c2)C1 (stereo unspecified) | 4 | 14 | -0.9

Exported with two lines to a compound: part of the list above
Results follow in this order: Ecoli rRNA inh	Ecoli rRNA inh OD600	Ecoli rRNA inh RFP
CC(C)NC(=O)N(C)C[C@H]1Oc2ncc(C#CC3CC3)cc2C(=O)N([C@@H](C)CO)C[C@@H]1C
→ 0	10	-2.0
O=C(NNC(=O)C(c1ccccc1)c1ccccc1)c1ccccc1O
→ -29	-34	0.0
CC(C)(C)[S@@](=O)N1Cc2cc(C(=O)N3CCc4ccccc4C3)nc(-c3cccc(-c4cccnc4)c3)c2[C@H]1CCO
→ -3	5	13

Filtered by structure: the entries above with a Cl atom.
SMILES | Ecoli rRNA inh | Ecoli rRNA inh OD600 | Ecoli rRNA inh RFP
C[C@@H]1O[C@H](CCc2cccc(Cl)c2)CC2=C1C(=O)OC(C)(C)O2 | -31 | -66 | -2.8
NC(=O)c1nnn(Cc2cc(Cl)c(C(=O)c3ccc(Cl)cc3)c(Cl)c2)c1N | -43 | -69 | -6.3
CCS(=O)(=O)NCC[C@H]1CC[C@H](NC(=O)Nc2cc(Cl)cc(Cl)c2)[C@H](CO)O1 | -5 | -10 | 1.4
O=C(C[C@@H]1C=C[C@@H](NC(=O)C2CC2)[C@@H](CO)O1)NCc1ccccc1Cl | 2&17 | -2&12 | -1.8&-0.1
CC1(C(=O)Nc2ccc(Cl)c(Cl)c2)CCN1CCc1ccccc1 (stereo unspecified) | -16 | -23 | -2.0
COc1ccc(NC(=O)N(C)C[C@H]2OCCCC[C@@H](C)Oc3ccc(NS(=O)(=O)c4ccc(Cl)cc4)cc3C(=O)N([C@@H](C)CO)C[C@H]2C)cc1 | 1 | 0 | -0.8
CC(=O)Nc1ccc(-c2ccnc3c2CC(C)(C(=O)Nc2ccc(Cl)c(C(F)(F)F)c2)O3)cc1 (stereo unspecified) | 4 | -35 | -3.9

Screens from PubChem BioAssay.
